RanGTP-Imp inh – inhibitors of RanGTP-importin-beta interaction, primary screen, biochemical, FRET, CFP-Ran, YFP-importin-beta, homogeneous; 300,000 compounds, 1.1% hits; AID 2216; cell-free CFP-Ran/YFP-importin-beta FRET ratio; inhibition, % (concentration not given with the values);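 active means most replicates above 15%; inconclusive means exactly half above 15%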;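 further: 0% = DMSO wells and 100% = Ran loaded with GDP instead of GTP; wells of about 40 µL received 100 nL stock; the first replicate is given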
Beta apoptosis – blocks beta cell apoptosis. INS-1E cytokine-induced death, ATP luminescence, 48 h; percent of positive-control rescue, neutral wells zero. protection from apoptosis, % (no concentration beside the values). 300,000 compounds, 0.8% hits;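 active means all replicates at 75% or more, or half of them and the mean; inconclusive means half reach 75% but not the mean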;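 further: 0% = cytokine-treated negative control wells and 100% = positive control rescue; higher means more ATP so stronger rescue from cytokine killing; wells of about 40 µL received 100 nL stock; the first replicate is given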
Vif TR-FRET – HIV-1 Vif–A3G interaction blockers – biochemical, TR-FRET, GST-Vif 1-94, biotin-A3G peptide, dose response retest, primary screen (AID 1117319). TR-FRET GST-Vif / biotin-A3G peptide binding; higher % means a stronger effect; test concentration not given here; strong numbers were not always called active. 260,000 compounds, 0.57% hits. one-dose inhibition, %; IC50 in µM for titrated hits;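 active means above the screen mean plus three standard deviations and confirmed in dose response; inconclusive means results disagree or hit not tested in dose response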;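 further: Vif residues 1-94 fused to GST binding biotinylated APOBEC3G peptide 110-148; 0% = full assay without inhibitor and 100% = GST in place of GST-Vif; retest series ran down from 100 µM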
LANA-H2B inh – blocks KSHV LANA binding to histone H2A/H2B; cell-free LANA-H2A/H2B peptide, fluorescence polarization; inhibition, % (no concentration beside the values); 320,000 compounds, 0.6% hits; AID 2629; in the data active means inhibition mostly above about 10%, no sharp cut-off; inactive means mostly below about 6.7%;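 further: stock transfer was 7.5 nL into about 10 µL; 0% = median of vehicle wells and 100% = median of positive control wells; one replicate is shown; the record names a cut of 25% in any replicate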
Bfl-1 A1 inh – inhibitors of the anti-apoptotic protein A1, read as caspase activation. AID 2462. caspase activation, % (concentration not given with the values). 330,000 compounds, 0.066% hits. MEF A1-2A-BIM cells, Caspase-Glo 3/7 luminescence, 3 h; percent of clofoctol response, vehicle zero;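 active means over half of replicate activation scores above 10%, or exactly half above 10 with the replicate mean above 10; inconclusive means replicate mean below 10 yet half the replicates above 10; inactive means over half of replicates below 10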;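 further: wells of about 30 µL received 50 nL stock; many hits fall short of the cut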
MLL AF4-AF9 inh – MLL-AF4/AF9 protein interaction inhibition; AlphaScreen, biotin-AF4 peptide binding to FLAG-AF9; inhibition, % at 10 µM; 350,000 compounds, 0.47% hits; AID 651704;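 active means every replicate reaching a set inhibition limit, whatever the replicate mean, cut at about 25% in these data; inconclusive means mean inhibition reaches that limit but some replicates miss it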;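 further: 0% = plate neutral control median and 100% = total signal loss; the record names both 10 and 1 µM as test concentration; the first replicate is given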
Target sequence (P42568 whole entry, looked up): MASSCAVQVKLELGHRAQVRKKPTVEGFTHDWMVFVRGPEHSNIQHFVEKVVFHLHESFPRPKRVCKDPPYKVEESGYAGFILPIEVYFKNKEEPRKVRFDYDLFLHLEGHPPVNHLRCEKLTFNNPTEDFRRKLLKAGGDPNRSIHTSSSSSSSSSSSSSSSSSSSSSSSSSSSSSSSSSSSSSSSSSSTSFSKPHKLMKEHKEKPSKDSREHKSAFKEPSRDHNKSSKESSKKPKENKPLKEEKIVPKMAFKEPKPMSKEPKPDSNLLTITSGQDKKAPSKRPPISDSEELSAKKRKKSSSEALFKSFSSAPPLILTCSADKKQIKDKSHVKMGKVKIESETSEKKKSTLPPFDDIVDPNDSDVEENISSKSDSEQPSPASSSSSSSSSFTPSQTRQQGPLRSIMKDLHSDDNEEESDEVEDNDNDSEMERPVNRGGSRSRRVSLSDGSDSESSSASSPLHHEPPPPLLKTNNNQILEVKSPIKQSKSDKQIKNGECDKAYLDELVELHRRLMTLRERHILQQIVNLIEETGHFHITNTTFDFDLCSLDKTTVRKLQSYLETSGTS
T cruzi inh – blocks replication of Trypanosoma cruzi; 300,000 compounds, 1.4% hits; inhibition, % (concentration not given with the values); AID 1885; T. cruzi beta-gal in NIH3T3, luminescence, 90 h;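 active means mean inhibition across valid replicates above about 55%, limit read from the data; inconclusive means mean below that limit but half or more replicates reach it; inactive means mean below it, under half of replicates reach it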;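 further: signal also drops with host cell toxicity which is not excluded here; 0% = plate median of DMSO wells and 100% = zero luminescence signal; higher percent means less beta-gal luminescence so fewer parasites; stock transfer was 50 nL into about 50 µL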
Calb FLC – affects C. albicans growth with fluconazole; C. albicans CaCi-2 (fluconazole-resistant clinical isolate) + fluconazole, Alamar Blue growth, 48 h; 300,000 compounds, 0.57% hits; growth inhibition, % (concentration not given with the values);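 active means most replicates above 75%; inconclusive means exactly half above 75%; inactive means most below 75%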;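 further: all wells also contain fluconazole at 8 µg/ml as a sub-toxic cotreatment; 0% = median of DMSO wells and 100% = median of geldanamycin control wells; wells of about 8 µL received 7.5 nL stock; the first replicate is given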
* marks the source's active call; other numbers are inactive results; ? = inconclusive; · = no result given; & = joins results of further samples.

SMILES	RanGTP-Imp inh	Beta apoptosis	Vif TR-FRET	LANA-H2B inh	Bfl-1 A1 inh	MLL AF4-AF9 inh	T cruzi inh	Calb FLC
Cc1nnc2c3ccccc3c(-c3cccs3)nn12	5.8	-7	-2%	·	-0.8	-0.8	11	-25
O=C(Nc1ccc(F)cc1)Nc1cnccn1	?	4	·	-1.1	-0.4	-0.5	-8	0
CNC(=O)Nc1ccc(S(N)(=O)=O)cc1	6.2	-3	-6%	-3.0	0.7	-2.2	-2	·
COc1cccc2c(C)c(C(=O)O)[nH]c12	2.5	10	?	-1.6	0.5	·	-6	4
CC(=O)N1CCN(CC(=O)Nc2cc(S(=O)(=O)N3CCCCC3)ccc2C)CC1	·	0	·	-5.5	0.0	-3.1	·	·
COc1ccc(NS(=O)(=O)c2ccc(O)c(C(=O)OCC(=O)N3CC(C)OC(C)C3)c2)cc1 (stereo not given)	4.9	-3	-5%	-3.5	1.2	·	-15	-17
COc1ccc(NC(=S)N2CCCC(c3nc4ccc(C)cc4[nH]3)C2)c(OC)c1 (stereo not given)	1.3	-7	·	-1.8	0.2	-3.3	2	16
Nc1cccc(C(=O)Nc2ccco2)c1	1.3	4	5%	4.9	0.1	·	-7	22
O=C(CCCl)Nc1nc2c(s1)CCc1ccccc1-2	-2.3	18	·	3.9	0.6	0.9	2	·
N#Cc1nc(-c2ccccc2)oc1NCCN1CCCCC1	-1.6	-8	1%	-0.5	1.7	·	-10	-7
CN(C)c1nc(-c2cccnc2)nc(-c2ccc(Cl)cc2)c1C#N	-4.2	6	-4%	0.6	0.4	0.2	1	0
C[C@H](NC(=O)c1ccc(Br)cc1)C(=O)NCc1ccc(S(N)(=O)=O)cc1	?	-2	19%	3.2	0.7	-15	-19	-18
COc1ccc(CC(=O)Nc2ccc(-c3cn4ccccc4n3)cc2)cc1	-4.5	9	6%	-1.0	-0.5	·	16	-1
CN(c1ccc(C(=O)NCc2ccncc2)cc1)S(=O)(=O)c1ccc(Cl)cc1	2.5	0	-8%	-1.0	0.9	2.8	-3	-1
O=c1c2cn[nH]c2[nH]c(=S)n1-c1ccccc1Cl	4.8	-1	21%	5.9	2.1	-3.0	-20	-7
CCC(=O)NNc1ncnc2c1cnn2-c1cccc(C)c1	-0.2	2	·	-2.1	1.4	-4.7	-18	20
CCCCNC(=O)c1nn2c(C(F)(F)F)cc(-c3ccc(OC)cc3)nc2c1Br	-2.6	8	-7%	0.4	0.0	-0.6	-1	3
O=C(O)CCCC(=O)N1N=C(c2c(-c3ccccc3)c3cc(Cl)ccc3[nH]c2=O)CC1c1cccs1 (stereo not given)	-1.1	-2	-9%	1.7	-0.6	1.3	3	8
CN(C(=O)c1ccccn1)C1(C(=O)NC2CCCCC2)CCCCC1	2.4	3	-4%	1.2	0.6	·	-8	2
O=S(=O)(c1ccccc1Cl)N1CCCC1c1nc(-c2cccc(Cl)c2)no1 (stereo not given)	4.3	-8	0%	0.7	0.8	·	31	1

Molecules above containing a cyano group, in the order listed:
SMILES	RanGTP-Imp inh	Beta apoptosis	Vif TR-FRET	LANA-H2B inh	Bfl-1 A1 inh	MLL AF4-AF9 inh	T cruzi inh	Calb FLC
N#Cc1nc(-c2ccccc2)oc1NCCN1CCCCC1	-1.6	-8	1%	-0.5	1.7	·	-10	-7
CN(C)c1nc(-c2cccnc2)nc(-c2ccc(Cl)cc2)c1C#N	-4.2	6	-4%	0.6	0.4	0.2	1	0

(continued)
SMILES	RanGTP-Imp inh	Beta apoptosis	Vif TR-FRET	LANA-H2B inh	Bfl-1 A1 inh	MLL AF4-AF9 inh	T cruzi inh	Calb FLC
COc1cc(=O)[nH]c(SCC(=O)Nc2nc3c(s2)CCCC3)n1	-3.2	-3	·	-1.6	-0.2	-1.3	-4	6
CCc1nnc(NC(=O)c2ccc(OC)cc2)s1	1.1	-1	24%	-2.4	-6.1	0.4	2	3
O=[N+]([O-])c1ccc(Cl)c(S(=O)(=O)/N=C(/c2ccccc2)N2CCOCC2)c1	1.3	1	5%	-4.8	-0.7	-13	14	7
Cc1nc(SCC(C)C)[nH]c(=O)c1Cc1ccccc1	1.0	-2	17%	1.8	0.1	·	3	-1
CC(C)C1Oc2ccccc2N(CC(=O)N(C)C2CCCCC2)C1=O (stereo not given)	-1.4	3	·	1.6	0.2	1.5	8	-1
O=C(O)CCNS(=O)(=O)c1ccc2c(c1)OCCCO2	-1.5	-4	·	13*	0.7	8.8	2	1
CC(C)c1nc(SCc2ccccn2)c2c(=O)n(C)c(=O)n(C)c2n1	-0.8	7	1%	1.3	-1.0	2.8	12	-2
CC(=O)Nc1ccc(Cl)cc1C1COC(=O)C1=N (stereo not given)	19*	-10	-5%	1.2	0.9	-5.3	-5	-8
O=C(CSc1nnc(NC(=O)c2c(F)cccc2F)s1)Nc1ccc(F)cc1	2.5	3	-9%	-1.6	-1.0	-13	-2	22
CCC(C(=O)OCC(=O)Nc1cccc(C(C)=O)c1)c1ccccc1 (stereo not given)	·	-4	1%	-0.1	-0.3	-2.8	-3	-2
O=C(Cc1cn2ccsc2n1)OCc1ccccc1	-0.2	·	0%	-1.2	-0.8	·	·	-4
CCn1cc(C(=O)N[C@H](C(=O)NCCCN2CCOCC2)C(C)C)c(=O)c2cc3c(cc21)OCO3	1.5	-2	-3%	4.3	-0.4	-37	-7	3
COC(=O)COc1ccc(S(=O)(=O)N2CCOCC2)cc1	2.5	-23	13%	-3.6	0.3	·	-14	-3
CCC1S/C(=N/N=C/c2cccs2)NC1=O (stereo not given)	2.5	-5	?	-1.0	0.1	·	-46	-22
C=C(C)COc1ccc(-c2n[nH]c(C)c2-c2ccccc2)c(O)c1	-1.9	36	3%	2.7	0.2	·	-19	·
CCOc1nc(Nc2ccccc2)nc(OCC)n1	?	9	·	-2.7	-1.0	0.3	-16	-3
CCOC(=O)c1cnc(SCC(=O)Nc2nnc(CC)s2)nc1N	8.0	4	-3%	-7.4	1.2	3.2	-8	-4
CN(C)c1ccc(P(=O)(OCc2ccccc2)C(O)c2ccccc2)cc1 (stereo not given)	0.1	-5	8%	-3.7	-0.8	1.5	-7	1
Cc1noc(C)c1NC(=O)Nc1cccc2c1O[C@@H](CN(C)C)[C@@H](C)CN([C@H](C)CO)C2=O	·	-3	·	-1.3	0.5	-1.5&-14	·	·
CCC(C)[C@H](NC(=O)NCc1cccc(OC)c1)C(=O)O (stereo not given in full)	-1.8	2	8%	-1.4	0.3	·	-11	-3
O=C(CN1C(=O)CSc2ccc(S(=O)(=O)N3CCCCC3)cc21)NCc1cccnc1	-3.3	-1	9%	1.1	?	-0.6	-17	-1
COc1ccccc1NS(=O)(=O)c1cc(NC(=O)c2cc(=O)[nH]c3ccccc23)ccc1N1CCOCC1	3.8	6	·	-0.7	0.7	-9.4	6	?
Cc1ccccc1CSc1nnc(-c2ccccn2)n1N	-1.6	-7	4%	-1.7	-2.5	·	2	-11
Clc1ccc2oc(SCc3cccnc3)nc2c1	2.9	4	-4%	2.9	0.5	-2.5	2	-5
CC(=O)c1c(C)[nH]c(C(=O)OCC(=O)N(C)C)c1C	2.8	·	-1%	-6.8	0.2	·	-14	-25
CO/N=C(/C(=O)N[C@@H]1C(=O)N2C(C(=O)O)=CCS[C@H]12)c1cnc(N)s1	1.6	2	·	-3.9	0.1	·	-4	·
Cc1ccc2c(c1)C(=O)c1ccccc1CS2=O (stereo not given)	4.3	-11	-1%	-1.7	-1.1	·	-9	?
CCOC(=O)C1CCCN(C2CC(=O)N(c3ccc(C(C)C)cc3)C2=O)C1 (stereo not given)	-2.8	2	-6%	12	-0.4	-4.5	-9	14
O=C(N/N=C/c1cccc(OC(=O)c2cccc(Br)c2)c1)c1cccnc1	-2.7	-3	0%	-0.4	-0.3	0.6	0	9
O=C(Nc1ccccc1O)c1ccc(NC(=O)C2CC2)cc1	-1.9	0	·	1.5	-1.1	-0.8	-16	-1
Cc1ccc(S(=O)(=O)NC2=NCN(CCOC(=O)c3ccc([N+](=O)[O-])cc3)CN2)cc1	1.6	-12	?	7.5	0.3	·	19	25
CCOC(=O)c1ccccc1CN1C(=O)c2ccccc2S1(=O)=O	-0.7	-5	0%	6.2	0.4	-0.1	4	7
CC1CC(C)CN(C(=O)CSc2nnc(-c3ccco3)o2)C1 (stereo not given)	?	-2	2%	-1.3	0.8	-4.7	·	-1
Fc1cccc(C2CCCCN2Cc2nc(C3CC3)no2)c1 (stereo not given)	-6.6	-1	-6%	2.8	-0.3	-0.7	3	-29
O=C(Cc1cc(=O)[nH][nH]1)N/N=C/c1c(Cl)cccc1Cl	1.5&-0.6	-5	6%	11&-2.8	-0.3&0.0	-2.2	-7&-6	-23&-8
Cc1ccc(OCC(=O)Nc2ccc(S(=O)(=O)Nc3ccccn3)cc2)cc1C	-1.3	-5	13%	4.7	1.2	-0.8	-22	1
Cc1noc(C)c1C(=O)NC(C)c1ccc2c(c1)OCO2 (stereo not given)	2.4	-4	9%	-5.1	0.9	·	-3	16
CCN1CCN(CCC(=O)Nc2cccc(OC)c2)CC1	-1.0	-4	11%	-0.4	0.8	·	7	-5
S=C(NC1CC2CCC1C2)N1CCN(c2cccc(Cl)c2)CC1 (stereo not given)	6.8	10	-3%	3.8	0.6	1.4	39	4
CN(Cc1ccccc1)C(=O)c1ccc(NC(=O)Cc2cccc(NC(=O)C3CCN(C(=O)C4CCC4)CC3)c2)cc1	·	0	·	3.1	?	3.5	·	·
CC(c1ccccc1)C(NC(=O)OCC1c2ccccc2-c2ccccc21)C(=O)O (stereo not given)	1.6	0	·	0.6	-1.0	-3.3	-13	5
CSc1cccc(NC(=O)CSc2ccccc2)c1	0.7	-7	0%	-0.7	-0.5	·	-1	-47
O=C(N/N=C/c1ccco1)c1cccc(NC(=O)c2ccccc2Cl)c1	-4.9	11	5%	-5.7	-0.2	3.5	-9	-22
COCCNC(=O)Cn1c(=O)n(CCCCCC(=O)NCc2ccc3c(c2)OCO3)c(=O)c2sccc21	1.8	-2	·	2.2	-0.1	·	-11	-5
CCOC(=O)CC1COc2ccccc2N1C(=O)c1cccc([N+](=O)[O-])c1 (stereo not given)	3.2	7	-7%	3.6	-0.4	4.0	10	1
COc1ccc(N2CCN(S(=O)(=O)c3ccc4c(c3)NC(=O)C(C)C(=O)N4)CC2)cc1 (stereo not given)	4.0	0	·	-1.0	-0.1	4.4	-12	3
Cc1[nH]c2ccccc2c1/C=C(/C#N)C(=O)NC(C)C	4.8	-3	5%	1.2	0.8	-1.1	5	-6
Cc1cc(C)cc(NC(=O)CSc2nnc(-c3ccccc3Br)o2)c1	3.0	-1	22%	4.8	0.4	·	-3	-5
COc1cc(N2N=C(c3ccccc3)CC2c2ccccc2)c(C=O)cc1C=O (stereo not given)	31*	-4	·	0.3	-0.4	-1.2	7	-4
C=CCNC(=O)/C(=C\c1cccc([N+](=O)[O-])c1)NC(=O)c1ccccc1	0.8	-1	-10%	2.0	-0.5	5.8	1	-1
